Cruzain Triton = inhibitors of Trypanosoma cruzi cruzain with detergent | P25779 | purified cruzain, Z-FR-AMC fluorescence, 0.01% Triton | Potency, µM, without a hit: max response, negative = inhibition, usual class: inhibitors | 200,000 tested, 0.43% active | AID 1478; active = well fitted curve in the direction sought with a large enough effect; inconclusive = small, poorly fitted or top-dose-only effect, or another doubt; inactive = no such curve, though single readings can be large; an effect the other way counts as inactive or inconclusive;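 also: plate controls were neutral wells for no effect and buffer without enzyme for full effect; nearly all actives have a fitted effect of over 40% in size; top concentration of the series not given in the record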
Target sequence (P25779 123-467 limits assumed): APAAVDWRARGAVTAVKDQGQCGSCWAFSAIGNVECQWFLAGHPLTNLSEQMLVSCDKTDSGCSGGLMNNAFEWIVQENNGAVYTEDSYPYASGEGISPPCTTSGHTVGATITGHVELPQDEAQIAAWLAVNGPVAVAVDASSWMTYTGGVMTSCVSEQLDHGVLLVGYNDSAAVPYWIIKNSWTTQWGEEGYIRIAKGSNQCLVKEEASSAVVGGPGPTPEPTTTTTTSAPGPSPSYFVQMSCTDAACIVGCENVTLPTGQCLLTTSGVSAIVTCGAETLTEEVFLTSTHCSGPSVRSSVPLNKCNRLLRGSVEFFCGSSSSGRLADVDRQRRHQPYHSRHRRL
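Z-FR-AMC hydrolysis (2 uM substrate) by cruzain (1.5 nM) monitored kinetically at ex 360/em 450 nm after 15 min room-temperature compound exposure; 0.01% Triton X-100, pH 5.5, 5 mM DTT.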
NS1 inh = blocks influenza NS1 protein function. S. cerevisiae slowed by influenza A NS1, growth recovery by OD600. Potency, µM (doses to about 46.1 µM), for the others: at the highest dose activity, positive = more growth. 270,000 tested, 0.4% active. AID 2326; also: actives are rising curves; nearly all actives have a fitted effect of over 50% in size
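Growth recovery, yeast-based: influenza A NS1 expressed in S. cerevisiae causes slow growth, and suppressors are detected by OD600. The parent strain without NS1 is used as positive control.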
StopGo reporter = lowers the luciferase signal of an FMDV 2A StopGo reporter | 410,000 tested, 1.2% active | Potency, µM (series often up to 57.9 µM), for the others: at the top dose signal change, negative = less light | human cells with a luciferase reporter of 2A StopGo recoding; control for the full effect not named in the record; active = well fitted falling curve with a large enough effect; inconclusive = small, poorly fitted or top-dose-only effect; inactive = no such curve, though single readings can be large or run the other way; tested in HEK293T cells; also: % is scaled to controls: 0 for no effect and ±100 for the full control effect; nearly all actives have a fitted effect of over 45% in size; luciferase light after 4 h
RE007 growth inh = less growth of the S. pombe RE007 Vpr strain | 360,000 tested, 0.21% active | Potency, µM (highest dose often 92.2 µM), inactives show top-dose activity change, negative = less growth | S. pombe RE007 Vpr strain, BacTiter-Glo ATP luminescence, 24 h; control for the full effect not named in the record; active = well fitted falling curve with a large enough effect; inconclusive = small, poorly fitted or top-dose-only effect; inactive = no such curve, though single readings can be large or run the other way;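 also: % is scaled to controls: 0 for no effect and ±100 for the full control effect; nearly all actives have a fitted effect of over 50% in size; the assay follows cell death caused by Vpr and the record does not say whether a fall means rescue or toxicity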
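Fission yeast strain RE007, carrying one chromosomally integrated HIV-1 vpr copy, was seeded at OD 0.01 in PMG+AL medium with 23 nL pinned compound. After 24 h at 30 °C and 99% humidity, viability was read by BacTiter-Glo luminescence.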
SARS PLpro yeast = blocks SARS-CoV papain-like protease in a yeast assay. Potency, µM (series often up to 32.9 µM), for the others: at the highest dose activity, positive = growth rescue. S. cerevisiae expressing SARS-CoV PLpro, growth rescue; control for the full effect not named in the record. 330,000 tested, 0.19% active; also: 0% is about no effect; nearly all actives have a fitted effect of over 55% in size; growth read by luminescence after 48 h
Cruzain inh noDet = inhibitors of Trypanosoma cruzi cruzain without detergent. purified cruzain, Z-FR-AMC fluorescence, no detergent. Potency, µM, inactives show max response, negative = inhibition, most hits filed as inhibitors. 200,000 tested, 2.3% active. AID 1476; active = well fitted curve in the direction sought with a large enough effect; inconclusive = small, poorly fitted or top-dose-only effect, or another doubt; inactive = no such curve, though single readings can be large; an effect the other way counts as inactive or inconclusive;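 also: plate controls were enzyme without inhibitor for no effect and buffer without enzyme for full effect; nearly all actives have a fitted effect of over 40% in size; top concentration of the series not given in the record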
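Detergent-free condition (0.00005% Triton X-100) in acetate buffer pH 5.5 with DTT. 1.5 nM enzyme and compound were pre-mixed 15 min, then 2 uM Z-FR-AMC substrate added; reaction progress from fluorescence change between first and third reads (60 s).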
Marburg entry inh = inhibitors of Marburg virus binding or cell entry. Marburg virus pseudotyped entry inhibition, cell reporter; control for the full effect not named in the record; about a third of the inactives were read at about 46 µM. Potency, µM (top dose mostly 37.8 µM), for inactives: at the highest dose activity change, negative = inhibition, actives largely listed as inhibitors. AID 540276. 300,000 tested, 1.8% active; active = well fitted inhibition curve with a large enough effect; inconclusive = small, poorly fitted or top-dose-only effect, or effect the other way; inactive = flat fitted curve, though single readings scatter; tested in HEK293 cells; about a fifth of its hits are not listed in these tables; also: % is scaled to controls: 0 for no effect and ±100 for the full control effect; luciferase read-out
LASV entry inh = blocks Lassa virus binding to or entry into cells; 300,000 tested, 1.2% active; Lassa virus pseudotype entry inhibition, cell reporter; control for the full effect not named in the record; Potency, µM (series often up to 37.9 µM), inactives show at the top dose activity change, negative = inhibition, actives largely listed as inhibitors; AID 540256; active means well fitted inhibition curve with a large enough effect; inconclusive means small, poorly fitted or top-dose-only effect, or effect the other way; inactive means flat fitted curve, though single readings scatter; tested in HEK293 cells; also: % is scaled to controls: 0 for no effect and ±100 for the full control effect; nearly all actives have a fitted effect of over 50% in size; luciferase read-out
An asterisk follows results filed as active; ? = inconclusive; . = not tested or not shown; & = joins results of further samples; [ ] = remark or other dose. Unless noted, calls follow the shape of the dose curve; as a rule, active means well fitted rising curve with a large enough effect; inconclusive means small, poorly fitted or top-dose-only effect; inactive means no such curve, though single readings can be large or run the other way. Potency is read from the fitted curve at half-maximal effect.

SMILES	Cruzain Triton	NS1 inh	StopGo reporter	RE007 growth inh	SARS PLpro yeast	Cruzain inh noDet	Marburg entry inh	LASV entry inh
Cc1ccc(C(=O)NCCNC(=O)COc2ccc(C)c(C)c2)cn1	.	2.7%	-4.4%	7.5%	-3.4%	.	21.4%[46.1 µM]	25.4%
CCCn1c(N)c(N(CCOC)C(=O)C(C)Oc2ccc(F)cc2)c(=O)[nH]c1=O (stereo not drawn)	.	.	-1.3%	-9.4%	3.0%	.	-24.3%[46.1 µM]	-5.3%
COc1ccc(OC)c(N(CC(=O)Nc2cccnc2)S(=O)(=O)c2ccc(C)cc2)c1	1.6%	-3.8%	.	-5.6%	-5.3%	-9.4%	?	?
COc1ccc(NC(=O)c2cc(-c3cccnc3)nc3c(C)c(C)ccc23)c(OC)c1	6.7%	7.7%	?	-4.2%	-0.7%	?	-20.4%	4.4%
O=C(Nc1ccc([N+](=O)[O-])cn1)c1ccc2c(c1)OCO2	.	.	59.6%[activator]	18.2%	0.3%	.	?	25.8%
O=C1CC(c2ccccc2)CC(O)=C1C=NC1CCCCC1 (stereo not drawn)	-0.1%	-14.4%	18.2%	0.7%	0.7%	-0.8%	11.2%	-28.3%[14.3 µM]
Cc1ccc(NC(=O)COC(=O)CCc2c(C)nc3ncnn3c2C)cc1	.	.	-7.8%	-4.4%	-1.1%	.	?	-12.0%[46.1 µM]
COCCCN1C(=O)C(=O)/C(=C(/O)c2ccc(S(=O)(=O)N3CCCCC3)cc2)C1c1ccc(O)cc1 (stereo not drawn)	.	15.2%	2.7%	-17.4%	21.3%	.	4.0%[46.1 µM]	7.9%[46.1 µM]
Cc1cccc(NC(=O)COC(=O)C2COc3ccccc3O2)c1C (stereo not drawn)	.	.	0.0%	-12.9%	-7.6%	.	7.9%	-4.6%
Cc1cccc(CN2CCCC(C(=O)N3CCCCC3)C2)c1 (stereo not drawn)	.	1.7%	-0.8%	5.5%	2.6%	.	.	.
Cc1ccccc1N/C(=N/S(=O)(=O)c1ccccc1)c1ccc(F)cc1	.	-1.9%	13.9%	3.1%	-0.3%	.	.	.
CC(=O)N1CCc2cc(CNS(=O)(=O)c3ccc(C(C)(C)C)cc3)ccc21	-3.9%	.	-12.4%	.	.	22.6%	.	3.0%[46.1 µM]
CNS(=O)(=O)Cc1ccc2[nH]cc(CCN(C)C)c2c1	-0.8%	3.7%	-19.7%&-15.8%&-2.3%	-6.8%[18.4 µM]	8.2%	-2.2%	.	.
Cc1ccccc1C(=O)Nc1ccccc1OCc1cc(=O)n2ccccc2n1	2.1%	.	-6.9%	.	.	-19.0%	.	?
COCC1CCN(Cc2nc(COc3ccccc3)no2)C1 (stereo not drawn)	.	5.9%	8.8%	-14.1%	-0.3%	.	11.8%[46.1 µM]	-0.3%[46.1 µM]
CCOc1ccc(C(=O)N/N=C/c2cc(Cl)ccc2[N+](=O)[O-])cc1	-6.8%	0.0%	4.8%	3.1%	19.2%	-5.0%	1.7%	?
CCOc1ccc(CCNC(=O)Cn2ncn3c(cc4sc(C)cc43)c2=O)cc1OCC	-1.3%	.	-9.9%	.	.	0.4%	2.9%[46.1 µM]	.
Nc1nnc(/C=C/c2cccc([N+](=O)[O-])c2)s1	.	5.5%	20.9%	4.7%	-2.5%	.	.	.
COC(=O)CN1C(=O)[C@H]2[C@@H](c3ccc(C)o3)N3C(=O)CN(Cc4ccccn4)C(=O)[C@@]3(Cc3ccccc3)[C@H]2C1=O	.	-1.7%	-19.3%	0.0%	-9.7%	.	.	.
Cc1ccc2cc(C(c3nnnn3C3CCCC3)N(Cc3ccco3)Cc3cccs3)c(=O)[nH]c2c1 (stereo not drawn)	-4.5%	26.3%	-5.5%	-10.4%	3.2%	?	?	?
CC(/C=N/NC(=O)c1cc(C(C)(C)C)[nH]n1)=C\c1ccccc1	-2.5%	3.1%	-22.3%	4.7%	-0.9%	-5.0%	?	?
O=C(COC(=O)c1cccnc1Cl)Nc1nc(-c2ccccc2)cs1	-10.4%	-41.3%	-12.3%	-8.7%	-48.3%	-4.3%	17.6%	12.0%
O=C(CCN1C(=O)C2C3CCC(C3)C2C1=O)Nc1ccc(F)cc1 (stereo not drawn)	.	6.9%	-10.8%	2.5%	7.7%	.	2.3%[46.1 µM]	-4.2%[46.1 µM]
COc1ccc(/C=N/NC(=O)COc2ccc3ccccc3c2)c(C(=O)O)c1OC	-4.3%	9.1%	-5.5%	-9.9%	11.5%	-3.7%	2.8%	-2.8%
Cc1ccc(C)c(CNC(=O)c2ccc3c(c2)nc2n3CCCCC2)c1	-4.3%	.	20.3%	.	.	9.8%	.	7.94µM*

More records
SMILES	Cruzain Triton	NS1 inh	StopGo reporter	RE007 growth inh	SARS PLpro yeast	Cruzain inh noDet	Marburg entry inh	LASV entry inh
COc1cccc(CN2CCC(Oc3ccc(C(=O)N4CCCCC4)cc3)CC2)c1O	.	-5.7%	1.8%	-13.1%	-2.4%	.	?	-10.9%
CC(NC(=O)c1ccccc1F)c1nnc(SCc2nc3ccccc3c(=O)[nH]2)n1C (stereo not drawn)	.	.	18.0%	7.2%	1.0%	.	-3.2%[46.1 µM]	15.7%[46.1 µM]
CN(C)c1ccc(C2Nc3cccc4cccc(c34)N2)cc1	.	0.4%	0.0%	-16.6%	-0.2%	.	.	.
Cn1c(CSCc2ccccc2Cl)n[nH]c1=S	.	0.0%	4.1%	3.5%	2.0%	.	.	.
COc1cc2ncnc(NCc3ccc(Cl)cc3)c2cc1OC	.	2.3%	0.0%	-1.5%	-1.2%	.	.	.
Cc1ccccc1C(=O)NCC(=O)O	.	6.1%	-0.7%	4.7%	-0.2%	.	-0.6%	-19.2%
CC(=O)c1ccc(NC(=O)Nc2ccccc2)cc1	-2.6%	-22.9%	.	7.0%	-10.9%	10.4%	?	8.2µM*
CCc1ccc(S(=O)(=O)NCc2cn3ccsc3n2)s1	1.0%	14.0%&6.4%	57.7%[activator]	-17.4%	-0.5%	?	0.7%&-7.9%	15.4%
Cc1cc(=O)[nH]c(N/N=C/c2cc(C)n(CC(F)(F)F)c2C)n1	.	4.6%	16.5%	-6.8%	2.0%	.	.	.
Cc1ccc(C)c(S(=O)(=O)N2CCNCC2)c1	.	.	-3.1%	2.9%	1.1%	.	1.3%[46.1 µM]	-2.0%
COc1ccc(C(=O)NCC(=O)c2ccccc2)cc1	.	-10.8%	0.0%	9.9%	2.4%	.	.	.
CN(C)C(=O)c1ccc(NC(=O)CC2SC(N3CCCC3)=NC2=O)cc1 (stereo not drawn)	.	.	2.2%	-0.5%	1.6%	.	11.1%	?
COc1ccc(C(=O)NCc2nnc(SCC(=O)N3CCCc4ccccc43)o2)cc1OC	.	.	-14.7%	7.0%	2.4%	.	8.9%	-10.4%
Cc1cc(=O)oc(C)c1C(=O)Nc1cccc2ccccc12	-6.6%	5.5%	-11.6%	5.2%	5.7%	0.9%	-0.4%	8.3%
CN(C)c1ccc(N=Cc2cccn2C)cc1	.	-10.2%	22.0%	-18.1%	-7.6%	.	?	6.31µM*
COc1ccc(OC)c(CNC(=O)c2nn(C)c3c2CSc2ccccc2-3)c1	3.4%	.	-28.7%	.	.	-4.4%	0.8%[46.1 µM]	7.7%[46.1 µM]
COc1ccc(/C=N/NC(=O)c2cccc([N+](=O)[O-])c2)cc1O	.	-2.5%	64.8%[activator]	-11.4%	-1.0%	.	?	2.3%
CCn1c(SCC(=O)NCC2CCCO2)nnc1-c1ccccc1 (stereo not drawn)	3.7%	12.2%	-0.4%	-3.6%	6.7%	-5.0%	1.4%	19.1%
COc1ccc(CSc2nnnn2-c2ccc(C(N)=O)cc2)cc1[N+](=O)[O-]	.	2.6%	-21.2%	-5.1%	-1.4%	.	.	.
Cc1ccc(C)c(N2CCN(C3CCCC(C)C3)CC2)c1 (stereo not drawn)	.	-0.9%	?	-12.7%	1.2%	.	5.01µM*	?
COc1ccc(CCNC(=O)C(C)OC(=O)c2ccco2)cc1OC (stereo not drawn)	-4.2%	-5.6%	-17.3%	-9.9%	7.5%	-2.2%	-1.5%	-16.6%
Cc1n[nH]c(=O)n1-c1cccc(C(F)(F)F)c1	6.3%	5.6%	-17.0%	31.4%	4.4%	-3.2%	0.8%	11.7%
CCCN(CCC)CCNC(=O)C1CCN(Cc2nc(-c3ccc(Cl)cc3)oc2C)CC1	-4.2%	4.2%	-4.8%	-28.5%	-1.2%	-6.4%	10.3µM*	?
CNC(=S)NC1CC2CCCC(C1)N2Cc1ccc(C)cc1 (stereo not drawn)	.	1.3%	-18.3%	2.1%	0.8%	.	4.61µM*	14.6%
CN(Cc1ccnc2ccccc12)C(=O)C1CCC(=O)N(Cc2ccccc2F)C1 (stereo not drawn)	.	3.6%	-13.6%	6.0%	5.8%	.	7.8%	-11.3%

(cont.)
SMILES	Cruzain Triton	NS1 inh	StopGo reporter	RE007 growth inh	SARS PLpro yeast	Cruzain inh noDet	Marburg entry inh	LASV entry inh
CCOc1ccc(/C=N/NC(=O)c2ccc(O)cc2)cc1CN1CC2CC(C1)c1cccc(=O)n1C2 (stereo not drawn)	.	.	?	-8.0%	?	.	1.8%	.
NS(=O)(=O)c1ccc(CNS(=O)(=O)c2cc(Cl)ccc2Cl)cc1	.	-4.2%	13.2%	3.0%	0.0%	.	-8.9%[46.1 µM]	?
COc1ccc(S(=O)(=O)N2CCN(CC(=O)Nc3ccccc3OC)CC2)cc1	.	10.3%	-26.7%	2.5%	1.7%	.	12.3%[46.1 µM]	?
O=C(N=Nc1c(O)[nH]c2ccc(Br)cc12)c1cc(-c2cccs2)nc2ccccc12	.	4.8%	?	3.7%	-2.0%	.	-7.7%[46.1 µM]	0.3%
COc1ccc(CCC(=O)Nc2nnc(C)s2)cc1	.	.	-17.5%	3.4%	.	.	8.9%[46.1 µM]	10.4%
CCOC(=O)c1ccccc1-c1csc(NS(=O)(=O)c2ccc(Cl)cc2)n1	-6.2%	3.5%	?	18.3%	-8.2%	1.8%	-7.7%[46.1 µM]	-22.2%
NC(=O)CCC(NC(=O)c1ccc(Cl)cc1)C(=O)O (stereo not drawn)	.	.	25.7%	5.0%	1.2%	.	4.4%[46.1 µM]	-7.6%[46.1 µM]

Screening results from PubChem BioAssay.
